Ba CapD inh – inhibitors of Bacillus anthracis CapD enzyme; purified CapD enzyme, fluorescence intensity read-out; stronger effect = lower value; some hits fall short of the stated cut; z-score (test concentration not listed); 140,000 tested, 0.23% active; AID 492967;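 active = z-score under -4 in either of two replicates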;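 also: stock transfer was 100 nL into about 40 µL; score is relative to mean and spread of the plate; one replicate is shown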
AID504770 – growth inhibitors of E. coli YBA685 in a screen for V. cholerae RctB (chromosome II replication) inhibitors. AID 504770. E. coli YBA685 rctB-dependent plasmid, OD600 growth, 3 h; stronger effect = lower value. z-score (test concentration not listed). 130,000 tested, 0.27% active;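 active = z-score under -2 on both plates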;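 also: wells of about 30 µL received 100 nL stock; score is relative to mean and SD of the test wells; the first replicate is given; strong numbers were not always called active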
An asterisk follows results filed as active; nt = no result given; & = joins results of further samples.

SMILES | Ba CapD inh | AID504770
O=C(/C=C/c1cn(-c2ccccc2)nc1-c1cccs1)N1CCCC1 | nt | -0.2
Cc1cc(S(=O)(=O)n2nnc3ccccc32)ccc1Cl | -0.095 | nt
Cc1[nH]c(=O)[nH]c(=O)c1N | nt | -0.4
COc1ccc2c(c1)-c1c(ssc1=S)C(C)(C)N2C(=O)CSc1nc(C)cc(C)n1 | -0.04 | nt
CCC1=Nc2cc(C(=O)NCCN3CCCCCC3)ccc2Sc2ccc(C)cc21 | -1 | -0.5
CCN=C1S/C(=C/c2ccc(-c3ccc(Cl)cc3C(=O)O)o2)C(=O)N1CC | -0.26 | nt
Cc1ccc(Oc2ccc(C(F)(F)F)cc2NC(=O)c2c(-c3c(F)cccc3Cl)noc2C)c2c1CCC2 | 0.055 | nt
Cc1sc2nc(CN3CCCC3)nc(NC(C)C)c2c1C | nt | 0.75
CN(C)N1C(N)=C(C#N)C(c2ccccc2C(F)(F)F)C2=C1CC(c1ccccc1)CC2=O (centres undefined) | -0.44 | nt
CCn1c(=N)n(CC(=O)c2ccccc2)c2ccccc21 | -0.33 | -0.65
c1ccc(OCCOc2ccccc2)cc1 | 40 | 0.75
CCC(C)COC(=O)c1ccc(-c2ccc(-c3ccc(C(=O)OCC(C)CC)cc3)cc2)cc1 (centres undefined) | 0.28 | nt
O=C(CSc1nc2ccccc2c(=O)n1CCCO)N1CCC(c2ccccc2)=N1 | nt | 0.25
COc1ccc(/C=C2/C(=O)NN=C2N)cc1 | nt | 1.1
CCn1c(Cc2ccccc2)nnc1SCC(=O)N1CCCCC1C (centres undefined) | nt | 0.65
CCOc1cc(C=C2C(=O)NC(=O)NC2=O)ccc1OCCOc1ccc(C)c(C)c1 | -0.33 | nt
O=C1C=CC(=O)N1C1CCN(Cc2ccccc2)CC1 | -1.6 | -0.55
C/C(=C\c1ccccc1)CN1CCCN(C)CC1 | 0.12 | -0.45
COc1cc(-c2nc3sc4c(c3c(=O)[nH]2)CCCC4)cc(Cl)c1OCCOc1ccccc1 | -0.01 | nt
NC(=O)CSc1nc2cc(S(=O)(=O)N3CCOCC3)ccc2o1 | nt | -0.55
N#Cc1c(F)cccc1OCc1ccc(Cl)cc1 | 0.38 | nt
COc1ccc(C(C#N)N2N=C(C)CC2(C)C)cc1 (centres undefined) | -0.085 | -1.2
Cn1ncc2c(Sc3cccc4ccccc34)ncnc21 | -0.37 | 1.8
N/C(CN1CCCCC1)=N\S(=O)(=O)c1cc(Cl)cc(Cl)c1 | -0.15 | 1.8
O=C(CSc1ncnc2sc3c(c12)CCC3)Nc1ccccc1C(F)(F)F | -0.54 | nt

As a working copy, part of the list above:
SMILES | Ba CapD inh | AID504770
O=C(/C=C/c1cn(-c2ccccc2)nc1-c1cccs1)N1CCCC1 | nt | -0.2
Cc1cc(S(=O)(=O)n2nnc3ccccc32)ccc1Cl | -0.095 | nt
Cc1[nH]c(=O)[nH]c(=O)c1N | nt | -0.4
COc1ccc2c(c1)-c1c(ssc1=S)C(C)(C)N2C(=O)CSc1nc(C)cc(C)n1 | -0.04 | nt
CCC1=Nc2cc(C(=O)NCCN3CCCCCC3)ccc2Sc2ccc(C)cc21 | -1 | -0.5
CCN=C1S/C(=C/c2ccc(-c3ccc(Cl)cc3C(=O)O)o2)C(=O)N1CC | -0.26 | nt

Additional results follow.
SMILES | Ba CapD inh | AID504770
CCc1noc(C)c1C(=O)N1CCOCC1 | 0.69 | -0.4
Cc1cc(S(=O)(=O)NC(C)C)ccc1OCC(=O)NC1CC1 | -0.17 | 1.5
N[C@H](Cc1ccccc1)C(=O)O | -0.19 | 0.1
CCOC(=O)C1C(=O)Nc2nc(C)nn2C1c1ccccc1 (centres undefined) | -0.42 | -0.45
O=C(NNC(=S)Nc1cccc(Cl)c1)c1cccnc1 | -0.22 | nt
C=CCNc1ncnc2c1sc1nc(CCCC)c3c(c12)CCCC3 | -0.66 | 0.15
O=C(NCCCN1CCOCC1)NC1(c2ccccc2)CC1 | 0.55 | 0.25
CCCN(C(=O)NS(=O)(=O)c1ccc(C)cc1)C1CCN(C)CC1 | -0.11 | nt
O=S(=O)(c1ccccc1)c1cccs1 | 0.16 | nt
CCOC(=O)c1ccc(NC(=O)c2sc(NC(=O)c3ccc(C)c([N+](=O)[O-])c3)c(C(=O)OCC)c2C)cc1 | 0.17 | nt
O=S(=O)(NCc1ccco1)c1cccc2cccnc12 | nt | -0.05
O=C(NCCCn1ccnc1)c1cc(-c2ccc(Cl)c(Cl)c2)on1 | -0.2 | -0.8
CCN(CC)C(=O)Cn1cnc2sc(C(=O)Nc3c(F)cc(F)cc3Br)c(C)c2c1=O | -0.74 | nt
Cn1c(=O)[nH]c(=O)c2c1nc(SCc1cccc(Br)c1)n2CC(O)COc1ccc(Cl)cc1 (centres undefined) | -0.015 | nt
CCC(C(=O)NN1C(=O)c2ccccc2C1=O)c1ccccc1 (centres undefined) | 0.12 | -1.1
CCn1c2ccccc2c2cc(CN3CCN(Cc4ccco4)CC3)ccc21 | nt | -0.1
CN(C)CC(C)(C)Cn1c(=S)[nH]c2ccccc2c1=O | nt | -1
Brc1ccc2c(c1)CN(C1CCCCC1)CO2 | -0.2 | -0.8
COc1cccc(Nc2ccc(-n3ccnc3)nn2)c1 | -0.95 | 1.2
Cc1cccc(NC(=O)CN2CCN(C(=O)c3cc(C4CC4)nn3-c3ccccc3)CC2)c1C | nt | 0.65
Cc1ccsc1C(=O)N(CC(=O)Nc1ccccc1C(F)(F)F)Cc1ccco1 | nt | -0.1
COCCN1C(=O)c2oc3ccccc3c(=O)c2C1c1ccc(C)cc1 (centres undefined) | -1.2 | -0.4
CCOC(=O)c1cc2c(=O)n3ccccc3nc2n(CC)c1=N | 57 | -0.5
N#CC(C#N)=C1C=C2C=C(N3CCCC3)CCC2CC1 (centres undefined) | nt | 1.9
COc1cccc2cc(C(=O)NCCc3ccccc3)c(=O)oc12 | 0.66 | 0.95
Continuation:
SMILES | Ba CapD inh | AID504770
O=C(c1cccc2c1C(=O)N(Cc1cccnc1)C2)N1CCN(Cc2ccccc2)CC1 | -0.98 | 1.9
O=C1C(C=NCCc2c[nH]c3ccccc23)=C(O)c2ccccc21 | 1.2 | 0.9
Cc1nc2c(C(=O)Nc3ccc(N4CCC(O)CC4)cc3)snc2c(=O)[nH]1 | nt | 2
Cn1cnc2c1c(=O)n(Cc1ccccc1F)c(=O)n2C | -0.76 | nt
Cc1ccc(N2C(=O)C(C)SC23C(=O)Nc2ccccc23)cc1 (centres undefined) | -1.2 | nt
CCCCN(S(C)(=O)=O)S(=O)(=O)c1ccc(OC)cc1 | nt | -0.2
O=C(Cc1ccccc1)NCCSCc1ccco1 | -0.02 | 2.3
CCNC(C)Cc1cccc(C(F)(F)F)c1 (centres undefined) | -0.05 | nt
COc1cc(C2CC(=O)Nc3c2ccc2ccccc32)cc(OC)c1OC(C)=O (centres undefined) | 0.26 | nt
CCOC(=O)C1=C(C)NC2=C(C(=O)C(C(=O)OCC)C(c3cccc(OC)c3)C2)C1c1cc(OC)ccc1OC (centres undefined) | 4.5 | nt
O=c1[nH]c2ccc(NS(=O)(=O)Cc3ccccc3)cc2o1 | 0.12 | -1.1
Fc1ccccc1N1CCN(c2ncnc3[nH]ncc23)CC1 | nt | -0.35
Cc1cc(C)cc(NS(=O)(=O)c2cn(C)c(=O)n(C)c2=O)c1 | nt | 0.8
CCOc1cccc(C(=O)Nc2cc3nn(-c4ccccc4)nc3cc2C)c1 | 55 | 0.4
CCOc1ccc(N=C2C(=O)N(CN3CCCC(C)C3)c3ccccc32)cc1 (centres undefined) | -0.71 | 1.6
O=C1CC(c2ccccc2)Nc2ccc3ccccc3c21 (centres undefined) | 1.1 | -0.35
CCOC(=O)c1ccc2c(c1)nc(C(C)C)n2CC | nt | -0.3
Cc1conc1NC(c1cccs1)c1ccc2cccnc2c1O (centres undefined) | nt | 1.1
C=CCN1C(=O)/C(=C2/C(=O)N(CC(=O)Nc3ccccc3Cl)c3ccccc32)SC1=S | 0.74 | 1.2
COCCNc1nc(SCc2ccc(Cl)cc2)nc2ccccc12 | 0.025 | nt
CC(=O)NC1(c2ccc(C)cc2)CCN(CC(=O)NC2CC2)CC1 | nt | -0.9
CN(C)c1ccc(/C=c2\sc3c(C#N)cc(C(=O)c4ccccc4)n3c2=O)cc1 | nt | 0.25
COC(=O)C1CCC(C(=O)OC)CC1 (centres undefined) | 0.06 | nt
O=C(N1CCN(c2ccccc2)CC1)N(c1ccccc1)c1ccccc1 | nt | 0.35
CC(=O)Nc1ccc(NC(=O)CNc2ccc(Br)cc2)cc1 | nt | -0.75
Continued.
SMILES | Ba CapD inh | AID504770
CCOc1ccc(NC2SC(=O)NC2=O)cc1 (centres undefined) | -0.43 | 0.3
COc1ccc(-c2cc(C(=O)NCc3ccc4c(c3)OCO4)c3ccccc3n2)cc1 | 13 | nt
CCc1ccccc1NC(=O)CSc1nc2cc(C(=O)NCC3CCCO3)ccc2c(=O)n1Cc1ccco1 (centres undefined) | 0.58 | nt
Cn1nnnc1SC1CCCCN(C(=O)c2ccc(F)cc2)C1=O (centres undefined) | nt | 1.4
O=C(CCN1C(=O)/C(=C/c2cccs2)SC1=S)NC12CC3CC(CC(C3)C1)C2 | -0.59 | nt
N#Cc1ccccc1NC(=O)c1cccs1 | nt | -1.3
CCOc1ccc(C(=O)Nc2ccc(NC(=O)c3ccccc3)c(C)c2)cc1Br | -1.1 | 2.4
CCN(CC)c1ccc(/C=C(/C#N)C(=O)NC(C)C)o1 | nt | -3.4*
CCOC(=O)Cn1c2c(c(C(F)(F)F)cc1=O)C(=O)CCC2 | 0.23 | 0.8
Cc1cc(N2C(=O)NC(=O)/C(=C\C=C\c3ccco3)C2=O)ccc1Br | -0.89 | nt
Cc1ccc2oc(C(=O)Nc3ccc(C)c(C)c3)cc(=O)c2c1 | 0.29 | 0
CC(=O)Nc1ccc(C(=O)N2CCCC2)cc1 | nt | -1
Cc1ccc2oc(=N)c3c(N)nc(-c4ccc5c(c4)OCO5)cc3c2c1 | nt | 0.9
C=CCN1C(=O)C(CC(=O)Nc2ccc(OC)cc2)N(Cc2ccco2)C1=S (centres undefined) | -0.64 | 1.6
CCOc1ccc(N2CC(O)(c3ccc(Cl)cc3)[N+]3=C2SCCC3)cc1 (centres undefined) | 0.62 | nt
CCN(CC)c1ccc(C(=O)Oc2ccc(C(=O)OC)cc2)cc1 | nt | 2.2
Fc1cccc(Cl)c1CSc1ncnc2ccccc12 | -0.46 | 1.1
CC(C)NC(=O)c1ccccc1Sc1ccccc1 | 0.41 | 0.3
CC(C)(C)c1ccc(C(O)CCCN2CCC(C(O)(c3ccccc3)c3ccccc3)CC2)cc1 (centres undefined) | -0.47&-0.49 | nt
C[C@H](NC(=O)Cc1ncc(C(F)(F)F)cc1Cl)c1ccccc1 | -0.26 | -0.15
COC(=O)c1ccc(-n2c(C)nc3ccccc3c2=O)cc1 | -1.3 | 0.1
CC(C)(C)CC(C)(C)NC(=O)c1cccc(N=Cc2ccccc2O)c1 | 0.18 | -0.15
COCCCn1c(C)cc(C(=O)Cn2cnc3sc(-c4ccccc4)cc3c2=O)c1C | nt | 0.2
CC(=O)C1=NN(c2ccc(Br)cc2)C2(S1)SC(c1ccc(C)cc1)(c1ccc(C)cc1)c1ccccc12 (centres undefined) | -0.12 | nt
O=C(N/N=C/c1ccc(N2CCOCC2)cc1)c1ccncc1 | nt | -0.05
New compounds follow.
SMILES | Ba CapD inh | AID504770
CCO/N=C(/C)C1=C(O)C(C(=O)OC)C(C)(C)CC1=O (centres undefined) | 0.42 | -1
CN(C)CCC(=O)c1ccc2c(c1)OCO2 | nt | -0.25
CC(=O)N=Cc1c(C)c(C#N)c(=O)n(C)c1O | 9.9 | -0.2
COc1ccc(Br)c(C(=O)Nn2c(-c3cccc(Cl)c3)nc3ccccc3c2=O)c1 | -0.54 | nt
Cc1oc(-c2ccc(C(=O)NC3CC3)cc2)nc1CS(=O)(=O)c1ccccc1 | 0.67 | -0.2
COc1cc(OC)cc(C(=O)Oc2cccc(NC3=NS(=O)(=O)c4ccccc43)c2)c1 | 14 | nt
CCC(CC)c1nn2c(=O)cc(CSc3ccccc3NC(=O)c3ccco3)nc2s1 | -0.015 | 0.8
N#Cc1ccc(NC(=O)CSC2=Nc3ccccc3C3CC=NN23)cc1Cl (centres undefined) | nt | -0.6
CCOc1ccc(S(=O)(=O)NCCC(=O)Nc2cccc(-c3nnc4n3CCCCC4)c2)cc1 | nt | 1.3
COc1ccc(-c2noc(N3CCN(c4ccc(OC)cc4)CC3)n2)cc1 | 0.25 | -0.15
O=C(O)CCCN1C(=O)c2ccccc2S1(=O)=O | nt | 0.2
CCOc1ccc(N(C)S(=O)(=O)c2ccc3[nH]cc(C(=O)N4CCN(c5ccccc5)CC4)c(=O)c3c2)cc1 | 0.025 | nt
CCOC(=O)c1sc(NC(=O)C(C)Sc2nnc(CNC(=O)c3cccs3)n2C)c(C(=O)OCC)c1C (centres undefined) | -0.31 | nt
CCS(=O)(=O)N1CCN(C(=O)c2ccc(OC)cc2)CC1 | nt | 2.1
CCOC(=O)C(C#N)C1(c2ccccc2OC)CCOC(C)(C)C1 (centres undefined) | 0.93 | 0.75
CCOC(=O)COc1ccc(/C=C2\SC(=O)N(Cc3ccc(F)cc3)C2=O)cc1OC | 0 | nt
O=C(CSc1nc2ccccc2s1)N1CCc2ccccc2C1 | -0.74 | -0.7
CN(CCO)c1cc(C(F)(F)F)nc2ccccc12 | -1.3 | nt

Profiles as entered above. Screens in order: Ba CapD inh	AID504770
`COc1ccc(Br)c(C(=O)Nn2c(-c3cccc(Cl)c3)nc3ccccc3c2=O)c1` is listed with -0.54	nt
`CCOC(=O)c1sc(NC(=O)C(C)Sc2nnc(CNC(=O)c3cccs3)n2C)c(C(=O)OCC)c1C` (centres undefined) is listed with -0.31	nt
`CCOC(=O)C(C#N)C1(c2ccccc2OC)CCOC(C)(C)C1` (centres undefined) is listed with 0.93	0.75
`O=C(CSc1nc2ccccc2s1)N1CCc2ccccc2C1` is listed with -0.74	-0.7
`COc1ccc(-c2noc(N3CCN(c4ccc(OC)cc4)CC3)n2)cc1` is listed with 0.25	-0.15

This is a subset, so the mix of outcomes need not match the whole.
